# Mtb hypoxia inh – reduces hypoxia-regulated biosensor signal in M. tuberculosis; M. tuberculosis hypoxia-regulated fluorescent reporter, fluorescence; fluorescence inhibition, % (concentration not given with the values); hit rate 0.1% among 300,000; AID 1159583;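 active = 35 to 45% if threefold the growth effect, above 45% if 1.5-fold the growth effect; inactive = the rest, general growth blockers included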;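 also: wells of about 50 µL received 100 nL stock; 0% = vehicle wells and 100% = reference inhibitor wells; whole bacteria with a GFP reporter of the hypoxia response; strong numbers were not always called active; many hits fall short of the cut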
# ugtP null kill – growth inhibition of S. aureus ugtP deletion strain; S. aureus RN4220 ugtP deletion, OD600 growth, 16 h; some inactives read as strong as hits; growth inhibition, % (no concentration beside the values); hit rate 0.54% among 330,000;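 active = z-score under -3 and OD600 up to 0.15 on both plates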;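 also: plate controls were untreated wells for no effect and antibiotic for full effect; wells of about 80 µL received 100 nL stock; the first replicate is given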
# BJeLR lethal – kills HRASV12-expressing BJeLR cells; inhibition, % (test concentration not listed); BJeLR (HRASV12) viability, CellTiter-Glo ATP luminescence, 48 h; reference of the scale not given here; hit rate 0.17% among 300,000;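 active = replicate mean above 50%; inconclusive = above 50% but judged a plate artefact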;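 also: 50 nL library stock added to about 25 µL; numbers are from one replicate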
# Bead autofluor – counter-screen for toxin protease inhibitors: compound fluorescence | compound autofluorescence counterscreen, microsphere flow cytometry; active compounds read high | fluorescence intensity (concentration not given with the values) | hit rate 3.1% among 360,000 | AID 624483;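 active = at least 3 SD above the mean of all compounds, about 16000 in these data; inconclusive = too few beads counted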;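 also: 100 nL of 1 mM stock went into each well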
# Sa RN4220 lethal – kills Staphylococcus aureus RN4220 | S. aureus RN4220 growth, OD600, 16 h | inhibition, % (concentration not given with the values) | hit rate 0.33% among 330,000;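 active = z-score of -3 or lower and OD600 up to 0.18 on both plates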;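 also: plate controls were untreated cells for no effect and reference antibiotic for full effect; stock transfer was 100 nL into about 80 µL; one replicate is shown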
# PrP UTR inh – suppresses PrP 5' UTR mRNA reporter expression | hit rate 0.35% among 340,000 | AID 488862 | cell-based PrP 5' UTR mRNA reporter, plate reader | inhibition, % (concentration not given with the values);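 active = every replicate at 50% or more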;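 also: 0 = median of the neutral control wells; tested in H4 reporter cells; numbers are from one replicate; inactives centre near -14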
# Mtb hypoxia inh growth – recorded beside Mtb hypoxia inh, whose call it bears; growth inhibition, %; measured here: M. tuberculosis growth (absorbance);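 0% = vehicle and 100% = reference antibiotic; read after six days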
# * = called active by the depositor; ? = inconclusive; . = not tested or not shown.
# Results follow in this order: BJeLR lethal	Bead autofluor	PrP UTR inh	Mtb hypoxia inh growth	Sa RN4220 lethal	ugtP null kill	Mtb hypoxia inh
C=C(C=O)CC1CC(O)[C@]2(C)OC3CC4OC5C[C@]6(C)O[C@]7(C)CCC8OC9C[C@]%10(C)OC%11C(C)=CC(=O)OC%11CC%10OC9C[C@@H](C)C8OC7CC6O[C@]5(C)CC5OC5C4OC3CC2O1 (some centres not stated)
 : 38	4440	85*	.	.	.	.
Cc1ccc(-c2noc(CCC(=O)NCC3CCN(Cc4cccc(C)c4)CC3)n2)cc1
 : 2	3381	-28	.	-0.7	-5	.
CC(=O)n1cc([C@@H]2C=C(C(=O)N3CCOCC3)O[C@H](OCc3ccc(CO)cc3)C2)c2ccccc21
 : -11	4105	-15	.	.	.	.
COc1ccc(NC(=O)Cn2nnc(C(=O)NCCc3ccc(OC)c(OC)c3)c2N)c(OC)c1
 : 5	2541	-20	10	0.8	2	5
CCn1c(SCC(=O)N2CCCC(C)C2)nnc1-c1ccc(S(=O)(=O)N2CCN(C)CC2)cc1 (configuration not stated)
 : -8	5786	-15	5	-0.3	-4	4
CC(=O)Nc1ccc(CN2CCC(Oc3ccc(C(=O)N4CCCC4)cc3)CC2)cc1
 : -1	5597	-16	-1	-1.9	-5	-2
CC(Sc1nnc(-c2ccccc2Br)o1)C(=O)N1CCOCC1 (configuration not stated)
 : -3	5701	-11	5	0.7	-2	10
O=[N+]([O-])c1cccc(-c2noc3c2-c2nc(Cc4cccc5ccccc45)sc2CC3)c1
 : -14	2783	-8	12	-1.4	-9	11
COc1cc(NC(=O)COC(=O)Cc2ccc(-c3ccccc3)cc2)cc(OC)c1
 : -10	2369	-9	3	-9.5	-11	-2
CCOc1ccc(C=NNS(=O)(=O)c2ccc(C)cc2)cc1OC
 : .	.	.	-11	2.5	2	4
Cc1ccc(-c2ccc(=O)n(Cc3ccc(F)cc3)n2)cc1
 : -1	3476	-12	1	2.8	-3	-11
O=C(COc1ccc(Cl)cc1)NCCCNC(=O)c1ccncc1
 : -1	5367	-16	2	3.0	7	6
CCc1cc(SC#N)cc(CC)c1NC(=O)CCl
 : -14	2092	-16	5	3.7	-2	2
COc1ccc(CNC(=O)CC(C)=NNC(=O)COc2cccc(C)c2)cc1
 : .	.	.	1	7.0	4	4
CC(C)CN1C(=O)C(=O)N(CC(=O)N(C)CC(=O)Nc2ccc(F)cc2)C1=O
 : .	4306	-7	-1	6.7	2	4
CCOP(=S)(OCC)SCSP(=S)(OCC)OCC
 : .	2904	2	-3	-0.3	53	-4
C#CCOCCOCCOCCNc1nc(N2CCN(C(=O)CCCCCCCCCCNC(=O)Cn3cc(CC(C)O)nn3)CC2)nc(N2CCN(C(=O)CCCCCCCCCCNC(=O)Cn3cc(CC(C)O)nn3)CC2)n1 (configuration not stated)
 : .	.	.	11	11	9	-2
Cc1cccc(Nc2nc(C)cc(C)c2C#N)c1
 : -8	4028	-35	-1	8.3	12	6
c1ccc(-c2ccccc2OCCOCCN2CCc3ccccc3C2)cc1
 : -3	5197	1	7	0.1	-14	12
CC1(c2ccccc2Br)NC(=O)N(CC(=O)N2CCc3ccccc3C2)C1=O (configuration not stated)
 : .	?	-13	4	-1.5	-3	-5
O=C(Cc1c2ccccc2nc2ccccc12)c1ccccc1
 : 9	2551	-25	-2	4.4	2	16
O=c1[nH]nc(CNc2ccc(Cl)cc2Cl)c2ccccc12
 : -1	2684	-17	5	2.5	-20	-15
O=C(CNC(=O)c1ccccc1Br)N/N=C/c1cccs1
 : 2	3565	-26	.	.	.	.
COc1ccccc1CNC(=O)c1cccc(S(=O)(=O)N2CCN(c3ccc(F)cc3)CC2)c1
 : .	3487	-10	1	0.8	-4	4
CC(C)(C)c1csc(N/N=C/c2cccnc2)n1
 : -1	3259	-49	.	.	.	.
Cc1ccc2cc(C#N)c(N3CCN(C(=O)c4ccccc4)CC3)nc2c1
 : -1	3935	-10	0	3.0	5	14
CSCCC(NC(=O)c1ccco1)C(=O)NC1CCC(C)CC1 (configuration not stated)
 : .	3477	-54	10	5.3	3	9
C1CCN(c2nc(N3CCCC3)nc(N3CCNCC3)n2)C1
 : 2	.	.	20	-8.6	-7	3
CC(=O)c1cc(CN2C(=O)c3ccccc3C2=O)cs1
 : -10	9548	-40	6	3.2	-2	3
O=C(NNC(=O)c1ccccc1Br)c1ccc(SCC2CCCO2)c([N+](=O)[O-])c1 (configuration not stated)
 : -6	21390*	10	9	6.0	5	8

# An excerpt from above in order of length of the SMILES, falling.
# Results follow in this order: BJeLR lethal	Bead autofluor	PrP UTR inh	Mtb hypoxia inh growth	Sa RN4220 lethal	ugtP null kill	Mtb hypoxia inh
COc1ccc(CNC(=O)CC(C)=NNC(=O)COc2cccc(C)c2)cc1
 : .	.	.	1	7.0	4	4
Cc1ccc(-c2ccc(=O)n(Cc3ccc(F)cc3)n2)cc1
 : -1	3476	-12	1	2.8	-3	-11
O=C(CNC(=O)c1ccccc1Br)N/N=C/c1cccs1
 : 2	3565	-26	.	.	.	.

# The list continues.
# Results follow in this order: BJeLR lethal	Bead autofluor	PrP UTR inh	Mtb hypoxia inh growth	Sa RN4220 lethal	ugtP null kill	Mtb hypoxia inh
COc1ccc(-n2c(CNc3ccc(C)cc3)nnc2SCc2ccccc2)cc1
 : -7	2681	-2	4	6.0	-7	7
Cc1cc(O)c(C(=O)c2ccccc2C(=O)O)cc1C
 : -11	2829	10	.	4.4	8	.
COc1cccc(C2(O)CCN(C(=O)C(C)C)CC2)c1
 : 0	4888	-16	0	2.3	3	13
CCC(=O)C1CCCN(C(=O)CCc2nnc(C3(c4ccc(Cl)cc4)CCC3)o2)C1 (configuration not stated)
 : 1	6567	-49	-3	-5.0	-5	7
Cc1c(C(=O)N2CCN(c3ccc(F)cc3)CC2)sc2ncnc(N3CCN(c4ccccn4)CC3)c12
 : -6	3689	-17	4	-5.2	1	7
Cc1ccc(O)c(-c2cc(-c3ccccc3[N+](=O)[O-])[nH]n2)c1
 : -2	2507	-40	5	-2.8	-21	14
CCSc1nnc2nc(C)cc(C)n12
 : -22	4526	-19	.	-0.7	4	.
Brc1cccc(OCCCNC2CCCC2)c1
 : 1	4058	-27	10	2.7	7	22
Cc1cccc(N2CCN(CC(=O)N(C3CCCC3)C3CCS(=O)(=O)C3)CC2)c1C (configuration not stated)
 : .	3812	-16	7	4.1	0	18
COc1cc(OC)c(C2=NOC(C(=O)Nc3c(C)nn(CC(=O)N4CCCC4)c3C)C2)cc1Cl (configuration not stated)
 : 9	11168	-22	8	2.6	2	4
COc1ccc(C2CC(c3ccccc3)=NN2C(=O)CCC(=O)O)cc1 (configuration not stated)
 : 0	4119	-12	.	.	.	.
CCC(=O)Nc1nnc(SCC(=O)NCC2CCCO2)s1 (configuration not stated)
 : 2	5490	-8	6	0.1	10	4
CCOc1ccc(/C=C/C(=O)Nc2cccc(C(C)=O)c2)cc1
 : 10	2404	-38	3	5.3	0	7
COc1ccc(CCNC(=O)c2c(N)n(CCN3CCOCC3)c3nc4ccccc4nc23)cc1
 : -5	3032	-10	10	-15	-21	8
CCC(=O)OCC(=O)Nc1ccc(OC)cc1[N+](=O)[O-]
 : 11	2652	-35	16	0.8	-5	-1
CC1CN(C(=O)C(C)N2C(=O)c3ccccc3C2=O)CC(C)O1 (configuration not stated)
 : -3	9546	-33	5	17	3	9
Cc1cc(Br)ccc1NC(=O)c1sc2ncn(CC(=O)N3CCN(c4ccccn4)CC3)c(=O)c2c1C
 : -9	5176	-16	6	-4.6	-6	5
O=c1[nH]c(CN2CCN(c3ncccn3)CC2)nc2c(Br)cc(Br)cc12
 : -4	3536	-17	4	2.3	1	10
COCCNC(=O)Nc1ccc2nc(-c3ccco3)c(-c3ccco3)nc2c1
 : .	3866	-14	13	14	10	10
C/C(=N\NC(=O)CSc1nc2ccccc2[nH]1)c1ccncc1
 : 0	4883	-20	.	.	.	.
Cc1cc(C)c2c(n1)SCC(=O)N2CC(=O)Nc1ccccc1Cl
 : -8	5412	-12	.	1.7	2	.
CC(=O)/C=C/n1c(=S)oc2ccccc21
 : 71*	.	.	0	2.5	1	10
CCO/C(C)=N/n1c2nc3ccccc3nc2c2c(=O)n(C3CCCC3)c(C)nc21
 : 0	4615	-11	.	.	.	.
CCOC(=O)C1=NN(C(=O)Cc2ccccc2)C(O)(C(C)(C)C)C1 (configuration not stated)
 : 5	2169	-24	4	1.9	15	6
O=S(=O)(c1cc(F)ccc1F)N1CCC2(CC1)OCCN2S(=O)(=O)c1cccs1
 : 13	?	-15	1	5.7	9	5
CCn1cc(C(=S)N2CCC(C(N)=O)CC2)c2ccccc21
 : -3	4281	-10	1	-3.3	1	-2
O=C(CN1CCN(S(=O)(=O)c2ccc(Cl)cc2)CC1)Nc1ccc(N2CCOCC2)cc1
 : -4	9445	3	1	2.8	2	4
COc1ccc(OCc2nnc(NC(=O)Nc3ccc(F)cc3)s2)cc1
 : 1	2136	-6	5	-2.6	-11	-6
CCOc1cc2c(C#N)c(N3CCOCC3)nc(N)c2c(N)n1
 : -11	2427	-11	.	6.0	3	.
CCCCCN(C(=O)CCC(=O)OC(C)C(=O)NCc1ccccc1)c1c(N)n(CCCC)c(=O)[nH]c1=O (configuration not stated)
 : 0	6808	-6	-7	-0.2	9	1
c1cnn(-c2cc(N3CCOCC3)ncn2)c1
 : 4	17039*	-5	2	5.4	8	0
CNc1nc(N/N=C/c2ccc([N+](=O)[O-])cc2)nc(Nc2ccccc2)n1
 : 0	2441	-7	.	.	.	.
CCCCOc1ccc(C(=O)N(Cc2ccco2)C2CCS(=O)(=O)C2)cc1 (configuration not stated)
 : 1	5011	-26	4	1.6	6	6
COc1ccccc1NC(=S)NCc1ccccc1
 : -9	3754	-12	13	1.8	4	-5
O=C1C2CCCN2C(=S)N1c1cc(Cl)ccc1Cl (configuration not stated)
 : .	4995	-8	2	1.5	7	10
CC(=O)N1c2ccc(S(=O)(=O)NCCC(=O)Nc3cccc(Cl)c3)cc2CC1C (configuration not stated)
 : 9	4705	8	-2	1.1	-4	-2
COc1cccc(S(=O)(=O)NCc2ccc(C(=O)Nc3ccc(Cl)c(Cl)c3)cc2)c1
 : 7	2731	-14	.	-5.3	-15	.
COc1ccc(CNC(=O)C2CCN(S(=O)(=O)c3ccc4c(c3)C(C)(C)C(=O)N4C)CC2)cc1
 : 5	6093	-17	6	-1.6	14	3
COc1ccc(C=NNC(=O)c2ccccc2Cl)cc1COc1c(F)c(F)c(F)c(F)c1F
 : .	.	.	2	3.2	1	3
CN(C)/C=C/C(=O)/C=C/c1cn(-c2ncc(C(F)(F)F)cc2Cl)c2ccccc12
 : 2	2206	2	.	0.5	2	.
Clc1cncc(Cl)c1N/N=C/c1ccncc1
 : 6	2590	5	.	.	.	.
Oc1ccc(C=NN2CCOCC2)c(O)c1O
 : .	.	.	-4	7.6	-5	7
CC(=NNC(=O)c1cccs1)c1c(C)[nH]n(-c2nc3ccccc3s2)c1=O
 : .	.	.	3	30	-5	-3
C=CC1CN(CC(=O)OC)S(=O)(=O)c2ccccc21 (configuration not stated)
 : 1	3914	-7	9	3.3	2	3
O=[N+]([O-])c1ccccc1-c1cc(-c2ccccc2O)n[nH]1
 : 1	1923	-59	8	1.0	-13	9
O=c1cc(-c2ccccc2)nc2nc(COc3ccccc3)[nH]n12
 : -7	?	-4	.	3.1	-2	.
C=CCN1C(=O)C(CC(=O)Nc2ccccc2F)S/C1=N\c1nccs1 (configuration not stated)
 : 4	4274	-36	.	.	.	.
CC(c1ccccc1F)n1cc(C(=O)Nc2ccc3nc[nH]c3c2)nn1 (configuration not stated)
 : 11	4186	-17	12	-4.4	-1	9
Cn1c(=O)c(C(=O)NNC(=O)c2ccccc2Cl)c(O)c2ccccc21
 : 4	5247	-13	-3	20	-7	-3
COc1ccc(C(=O)N2CCCC(Nc3ccc(F)c(F)c3)C2)c(OC)n1 (configuration not stated)
 : 1	6083	-6	2	1.5	4	15
O=C(COC(=O)c1nc(Cl)ccc1Cl)c1ccc[nH]1
 : -9	6002	0	3	3.8	-2	2
O=C(NCc1ccccc1)c1n[nH]nc1-c1ccccc1O
 : -1	12857	-16	-1	9.7	33	3
CC1CN=C(Nc2ccc(F)cc2)S1 (configuration not stated)
 : 2	4427	-22	3	5.2	15	7

# From PubChem
